Ab BasE inh: BasE siderophore enzyme inhibitors, primary screen, biochemical, Acinetobacter baumannii ATCC 17978, fluorescence polarization. purified BasE, fluorescence polarization binding displacement. 84,000 compounds, 0.1% hits. inhibition, % (no concentration beside the values);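 active = both replicates above 25% with normal brightness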;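 note: 0% = negative plate control signal and 100% = positive plate control signal; stock transfer was 100 nL into about 30 µL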
LANA-nucl inh: inhibitors of KSHV LANA-nucleosome binding, primary screen, biochemical, fluorescence polarization, FITC-LANA1-23, chicken nucleosomes | FITC-LANA1-23 / chicken nucleosome fluorescence polarization; hits give low values | z-score (test concentration not listed) | 51,000 compounds, 0.3% hits | AID 720717, 2013;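 active = both repeat wells score below -2 in polarization z-score versus plate sample wells, excluding overly bright wells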;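 note: 100 nL library stock added to about 30 µL; numbers are from one replicate; some results filed as inactive read as strong as hits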
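test system = FITC-LANA peptide and chicken nucleosomes | amount = 240 nM purified chicken nucleosomes (480 nM peptide binding sites), final | reagent = 50 nM FITC-LANA1-23 probe | medium = TEN-BT buffer, pH 7.5 | doses = single compound addition by pin transfer, 100 nL per well | timing = 10–45 min, room temperature | detection = fluorescence polarization | repeats = duplicate plates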
* marks the source's active call; other numbers are inactive results; · = no result given; & = joins results of further samples. This is a subset. The share of hits here may be higher or lower than overall.

Values in the order – Ab BasE inh | LANA-nucl inh
CN1CCC(NC(=O)Cc2c(F)cccc2Cl)CC1
  -4.7 | 1.82
Cc1ccc(C(N)=S)c(C)c1
  -1.8 | ·
O=C(O)C1CC2CCCC(C1)C2=O (configuration not stated)
  1.7 | ·
CC1(C)OC2CS(=O)(=O)CC2O1 (configuration not stated)
  1.5 | 0.272
CSc1ccc(/C=C(\C#N)C(=O)NC2CCCCC2C)cc1 (configuration not stated)
  -1.1 | ·
O=C(Nc1ccccc1)C1CCCN1/C=C/C(=O)C(F)(F)F (configuration not stated)
  0.9 | 0.161
CCNC(=O)Oc1cccnc1I
  · | -0.727
O=S(=O)(c1cccc(S(=O)(=O)N2CCN(c3ncccn3)CC2)c1)N1CCCCC1
  1.1 | -0.203
Cc1cccc(NC(=O)c2ccccc2-c2nc(-c3ccccc3)no2)c1
  2.8 | -1.04
COc1ccc(-c2cc3cc(OC)c(OC)cc3c(Cc3ccccc3)n2)cc1
  1.0 | ·
COC(=O)c1cc2c(ccn2C)n1Cc1cccc(OC)c1
  3.0 | -1.52
CS(=O)(=O)c1ccc(NC(=O)COc2ccc(I)cc2)cc1
  2.3 | ·
O=C(c1ccc2c(c1)OCO2)N(c1ccc(Br)cc1)C1C=CS(=O)(=O)C1 (configuration not stated)
  -1.0 | -0.269
N#Cc1c(Cl)ncc2c1N(Cc1ccccc1)CC2
  -0.7 | 1.39
O=C(O)C1C2C=CC(C2)C1C(=O)NCCO (configuration not stated)
  -0.4 | -0.578
Cc1cccc(-c2ocnc2C(=O)Nc2ccccc2CN(C)C2CCCCC2)c1
  3.2 | -0.62
COC(=O)c1cc(COC(=O)/C=C/c2cnc3ccccc3n2)oc1C
  -5.7 | ·
CSc1ccc(S(=O)(=O)NCCC2=CCCCC2)cc1
  2.2 | -0.613
CC(C)N=c1cc2n(-c3ccc(Cl)cc3)c3ccccc3nc-2cc1Nc1ccc(Cl)cc1
  -4.6 | 0.0245&-0.372&0.149
CC(C)(C)NC(=O)Nc1ccccc1C(N)=O
  2.2 | -0.5
Cc1nccn1CC1CCc2c(c3ccccc3n2C)C1=O (configuration not stated)
  -0.8 | -0.641&0.0815&-0.545
CC(C)OC(=O)Nc1ccc(Cl)cc1
  · | -0.563
NC(=O)c1sc2nc(-c3ccccc3)cc(-c3ccco3)c2c1N
  -7.5 | ·
O=C(c1ccc(F)cc1)C1CCN(C(=O)c2ccc(-c3cccs3)s2)CC1
  · | -0.406
O=C(Cn1cnnc1)NCc1ccc(Cl)cc1
  · | -0.178
CC(=O)N(c1ccccc1)c1nc(/C=C/C(=O)O)cs1
  1.8 | ·
CC(C)[C@@H]1CC[C@@H](C)C[C@H]1O
  -3.0 | -0.223&0.903
CC1(C)CC(=O)c2cc3c(N)c(C(=O)NCc4ccco4)sc3nc2C1
  5.0 | 0.141
Cn1cccc1C(=O)OCc1cc(Cl)cc2c1OCOC2
  0.6 | ·
CC(C)[C@H](NS(=O)(=O)c1ccc2c(c1)OCCO2)C(=O)OCc1nc2ccccc2s1
  2.6 | ·
O=C(C(Cc1ccccc1)NS(=O)(=O)c1cccc2nsnc12)N1CCc2ccccc21 (configuration not stated)
  1.2 | -0.935
CC1SC(c2ccccc2)NC1=O (configuration not stated)
  -1.2 | -0.207
COC(=O)c1cc(-c2ccc(/C=C3\C(=O)NC(=O)C(C#N)=C3C)o2)ccc1Cl
  3.2 | ·
C#CCOc1ccc(C2C3=C(CCCC3=O)N(CCC(=O)O)C3=C2C(=O)CCC3)cc1
  -0.2 | 1.86
CCC(=O)Nc1cccc(-n2c(C)nc3ccccc3c2=O)c1
  -1.1 | 0.572
CCC(C)N(C(=O)CSc1nc(-c2ccccc2)cs1)C1CCS(=O)(=O)C1 (configuration not stated)
  2.0 | ·
CC(NC(=O)CN1CCN(C(=O)C2CCCO2)CC1)c1ccccc1 (configuration not stated)
  1.9 | ·
N#CC(C#N)=C/C=C/c1cc(C#N)c(N)o1
  -14.7 | ·
CCc1ccc(C2CC(=O)NC(NC(=O)Cc3ccc(OC)c(OC)c3)=N2)cc1 (configuration not stated)
  -3.4 | 0.283
COC(=O)c1ccc(COn2nnc3ccc(S(=O)(=O)N4CCOCC4)cc32)o1
  1.2 | ·
COc1cccc(-c2cc(C(=O)N3CCN(C(c4ccccc4)c4ccccc4)CC3)[nH]n2)c1
  0.3 | -0.73
CCn1c2ccccc2c2cc(CNC3CC3)ccc21
  -4.2 | 2.69
CSc1cccc(N2CC(C(=O)N3CCN(S(=O)(=O)c4ccccc4Cl)CC3)CC2=O)c1 (configuration not stated)
  -1.2 | ·
COc1ccc(C2=NN(CC(=O)N3CCN(c4cccc(Cl)c4)CC3)C(=O)CC2)cc1
  0.7 | 0.028
CCc1ccc(N=C(N)N=C(N)N)cc1
  1.0 | ·
CC(=O)N1CCN(C(=O)CN2C(=O)S/C(=C\c3ccc(Cl)cc3)C2=O)CC1
  2.1 | ·
O=C(O)CCSc1ccc(F)c(F)c1
  1.5 | ·
CCNC(=S)NNc1ccc(C)cc1C
  4.5 | ·
COc1cccc(Cn2c(=O)c3ccccc3n3nc(C)cc23)c1
  · | -0.683
COc1ccc(C2C(=O)N(CCc3ccccc3)CC(=O)N2C2CCCCC2)cc1 (configuration not stated)
  0.9 | -0.696

Going on with the list.
Values in the order – Ab BasE inh | LANA-nucl inh
O=C(CCC1CC(=O)OC1c1ccccc1)Nc1nccs1 (configuration not stated)
  0.5 | -0.586
COC(=O)c1cnn(C(=O)c2ccc(OC)cc2)c1N
  -0.9 | 0.583
CC1=NN(c2ccc(C(=O)O)cc2)C(=O)/C1=C\c1ccco1
  4.9 | 0.282
CC(C)c1ccc(NC(=O)Nc2cccs2)cc1
  1.8 | 0.849
Cn1c(-c2cc3ccc(O)c(CN4CCCC4)c3oc2=O)nc2ccccc21
  5.2 | ·
CN1c2ccsc2C(=O)CS1(=O)=O
  2.3 | -0.469
Cc1ccc(-c2csc(NC3OC(=O)c4ccccc43)n2)cc1C (configuration not stated)
  -0.6 | ·
CN1C2CCC1CC(NS(=O)(=O)c1cc(Cl)c(Cl)cc1Cl)C2 (configuration not stated)
  · | 0.773
COc1cccc(NC(=O)c2ccnc(N3CCC(C(=O)N4CCOCC4)CC3)c2)c1
  -0.9 | -0.569
O=C(O)C1CSC2(c3ccccc3)CCC(=O)N12 (configuration not stated)
  3.4 | ·
O=C(c1cn(-c2ccccc2)nc1-c1cccs1)N1CCOCC1
  -0.1 | -0.55
Cc1ccccc1NC(=O)NCC1CCN(C(=O)OC(C)(C)C)CC1
  0.1 | 0.301
CCC(=O)c1ccc(OCc2cn3cc(Cl)ccc3n2)cc1
  4.4 | ·
CC(C)c1ccc(NC(=O)c2ccc(N(C)C)cc2)cc1
  0.6 | -0.578
CCOC(=O)Nc1ccc2c(c1)OCO2
  2.0 | 0.0665
Cc1cc(C)n2ncc(/C(N)=N/OC(=O)c3ccccc3F)c2n1
  -0.5 | 0.318
CC(C)CN(CC(C)C)c1ncnc2c1cnn2-c1ccccc1
  1.3 | -0.286
CC(C)(C)c1ccccc1NS(C)(=O)=O
  3.7 | -0.454
Cc1ccc(C(C(=O)Nc2c(C)n(C)n(-c3ccccc3)c2=O)N(Cc2ccco2)C(=O)Cc2c[nH]c3ccccc23)cc1 (configuration not stated)
  0.0 | 0.35
O=C(CSc1ncccn1)N/N=C/c1cccc2c1OCCO2
  0.5 | -0.268
CCOc1ccccc1Nc1nnc(SCC(=O)NC(C)(C#N)C2CC2)s1 (configuration not stated)
  0.4 | ·
CN(Cc1ccccc1)C(=O)COC(=O)c1cc(Cl)nc(Cl)c1
  0.4 | ·
O=C1N/C(=N/N=C/c2ccco2)SC1Cc1ccc(SC(F)F)cc1 (configuration not stated)
  1.1 | ·
Cc1ccc(S(=O)(=O)NC(=NCc2ccc(Cl)cc2)Nc2nc(C)cc(C)n2)cc1
  0.8 | ·
CCNCc1cccc(F)c1
  0.7 | ·
N#CCSc1nc(-c2ccccc2)c2cc(Cl)ccc2n1
  1.9 | -1.06
CCN(C(=S)NC)c1cccc2ccccc12
  0.4 | ·
CC(=O)Nc1sc2c(c1SC#N)CCCC2
  1.0 | ·
COc1ccc(CNS(=O)(=O)c2ccc3c(c2)N(C)CCO3)cc1
  0.5 | 2.82
N=CC1=C(O)c2ccccc2C1=O
  2.8 | 0.045
CC1=CCC(COC(=O)CN2CCCCC2)CC1 (configuration not stated)
  -1.0 | -0.111
O=C(CCc1nnc2ccc(N3CCCC3)nn12)NCc1ccccn1
  4.0 | 0.42
COc1ccc(-n2c(-c3ccc(Br)cc3)nc3cc4c(cc32)OCO4)cc1
  2.7 | ·
O=C(NCCC1=CCCCC1)c1ccc2c(c1)[nH]c(=O)n2C1CCCC1
  -0.9 | 2.55
CCSc1ccccc1C(=O)Nc1nncs1
  8.1 | 0.223
CCOC(=O)c1cnc2ccccc2c1Cl
  · | -1.19
O=C(Cn1cnc2nc3c(cc2c1=O)CCCC3)NCCC1=CCCCC1
  -1.5 | -1.18
C=CCSc1nnc(NC(=O)Cc2coc3ccc(OC)cc23)s1
  0.2 | -0.925
CC(=O)N(C(C)=O)c1nccc(-c2c(-c3ccccc3)noc2C)n1
  2.7 | ·
C=CCC1c2cccc(C(=O)O)c2C(=O)N1c1ccc(F)cc1 (configuration not stated)
  0.3 | ·
O=C(NCCCc1ccccc1)NC1CC(=O)N(c2ccc(F)cc2)C1 (configuration not stated)
  1.0 | -2.5
C#CCn1cnc2c(oc3ccccc32)c1=O
  -0.9 | 0.183
CCCn1c(N)c(C(=O)CSc2nnc(-c3ccco3)n2-c2ccccc2)c(=O)n(C)c1=O
  -1.4 | ·
CCOC(=O)c1oc2ccccc2c1COC(=O)c1ccc2c(c1)OCO2
  -1.1 | ·
CCc1ccc(N2CC34C=CC(O3)C(C(=O)O)C4C2=O)cc1 (configuration not stated)
  1.1 | -0.705
CC(C)(CC(=O)N1CCN(c2ccccc2)CC1)Sc1ccc(Cl)cc1
  · | -0.883
O=C(Nc1sc2c(c1C(=O)O)CCCC2)c1cccs1
  3.5 | ·
CN(C)P(=NC(=O)COc1ccc(Cl)cc1Cl)(N(C)C)N(C)C
  1.9 | ·
CCOC(=O)c1ccc2c(c1)nc(SCC(=O)C(C)(C)C)n2CC
  1.1 | ·
CC(C)NC(=O)/C(C#N)=C/c1ccccc1
  1.6 | ·

Reformatted: six of the compounds above
molecule	Ab BasE inh	LANA-nucl inh
CC(C)c1ccc(NC(=O)c2ccc(N(C)C)cc2)cc1	0.6	-0.578
Cc1ccc(C(C(=O)Nc2c(C)n(C)n(-c3ccccc3)c2=O)N(Cc2ccco2)C(=O)Cc2c[nH]c3ccccc23)cc1 (configuration not stated)	0.0	0.35
CC(C)[C@H](NS(=O)(=O)c1ccc2c(c1)OCCO2)C(=O)OCc1nc2ccccc2s1	2.6	·
Cc1ccccc1NC(=O)NCC1CCN(C(=O)OC(C)(C)C)CC1	0.1	0.301
CC(=O)N1CCN(C(=O)CN2C(=O)S/C(=C\c3ccc(Cl)cc3)C2=O)CC1	2.1	·
COc1ccc(C2C(=O)N(CCc3ccccc3)CC(=O)N2C2CCCCC2)cc1 (configuration not stated)	0.9	-0.696

(listing goes on)
Values in the order – Ab BasE inh | LANA-nucl inh
COc1cccc(/C=C2\SC(N3CCC(C)CC3)=NC2=O)c1OC
  2.4 | 0.504
Cc1ccc(S(=O)(=O)NC2CCN(c3ncccn3)CC2)cc1
  0.7 | -1.02
O=C(Cc1c[nH]c2ccccc12)OCc1c(F)c(F)c(F)c(F)c1F
  1.0 | ·
CC(C)c1ccc2[nH]c3c(c2c1)CCCC3O (configuration not stated)
  1.9 | ·
COc1cc(NC(=O)Nc2ccccc2C)cc(OC)c1
  -5.9 | 1.8
CC1CCCN(C(=O)c2cc(-c3ccccc3)n[nH]2)C1 (configuration not stated)
  3.0 | ·
CCN(CC(=O)Nc1ccc(NC(C)=O)cc1)C(=O)c1n[nH]c(=O)c2ccccc12
  5.1 | ·
O=C(CN1CCc2ccccc21)Nc1ccc(SC(F)F)cc1
  1.9 | ·
COc1ccc(Br)cc1CN(C)C(C)C(=O)Nc1ccc2c(c1)OCO2 (configuration not stated)
  3.0 | ·
COC(=O)Cn1c(=NC(=O)C2CCCCC2)sc2cc(OC)ccc21
  -0.1 | -0.749
CC1CCCC(C)N1NC(=O)c1ccc(-c2nc3ccccc3s2)o1 (configuration not stated)
  1.7 | ·
O=C(CCc1ccccc1)Nc1nnc(CCN2CCCCC2)s1
  -0.7 | ·
O=C(Nc1nnc(C2CCCCC2)s1)C1c2ccccc2Oc2ccccc21
  0.0 | ·
CNC(=O)NC(=O)CSc1nc2sccc2c(=O)n1-c1ccccc1
  1.7 | ·
O=C(CSc1n[nH]c(=O)n1Cc1ccccc1)NC1CC1
  1.9 | ·
COc1ccc2nc(NC(=O)c3ccccn3)sc2c1
  -1.4 | -0.899
COC(CNC(=O)C1CCN(C(=O)c2cc3oc(C)cc3n2Cc2c(F)cccc2Cl)CC1)OC
  4.5 | 0.034
Clc1cccc(-c2nnc3c4ccccc4ncn23)c1
  · | 2.05
COc1ccccc1N1CCN(C(C)c2nc3ccccc3s2)CC1 (configuration not stated)
  1.3 | ·
Cc1c(N2C(=O)/C(=C\c3ccc(N(C)C)cc3)N(C)C2=S)c(=O)n(-c2ccccc2)n1C
  -11.2 | ·
N#CCn1ccn(-c2ccc(F)c(Cl)c2)c(=O)c1=O
  -0.6 | -1.6
COC(=O)c1cccc(CSc2nnc(-c3c[nH]c4ccccc34)o2)c1
  0.6 | ·

Screening results: PubChem BioAssay, ICCB-Longwood Screening Facility, Harvard Medical School
